Calb FLC = affects C. albicans growth with fluconazole | C. albicans CaCi-2 (fluconazole-resistant clinical isolate) + fluconazole, Alamar Blue growth, 48 h | growth inhibition, % (test concentration not listed) | 300,000 tested, 0.57% active;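 active means most replicates above 75%; inconclusive means exactly half above 75%; inactive means most below 75%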;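 further: all wells also contain fluconazole at 8 µg/ml as a sub-toxic cotreatment; 0% = median of DMSO wells and 100% = median of geldanamycin control wells; wells of about 8 µL received 7.5 nL stock; the first replicate is given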
Beta apoptosis = blocks beta cell apoptosis. AID 435005. 300,000 tested, 0.8% active. INS-1E cytokine-induced death, ATP luminescence, 48 h; percent of positive-control rescue, neutral wells zero. protection from apoptosis, % (no concentration beside the values);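 active means all replicates at 75% or more, or half of them and the mean; inconclusive means half reach 75% but not the mean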;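 further: 0% = cytokine-treated negative control wells and 100% = positive control rescue; higher means more ATP so stronger rescue from cytokine killing; wells of about 40 µL received 100 nL stock; the first replicate is given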
Ecoli rRNA inh = inhibitors of bacterial rRNA selective over humanized ribosomes; E. coli WT GFP vs humanized-ribosome RFP mutants, fluorescence, 24 h; hits give low values; DMSO median 0, no signal -100; GFP signal change (wild-type ribosome), % (test concentration not listed); 350,000 tested, 1.6% active;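 active means significant combined selectivity score with lowered wild-type GFP, culture density cut under 30%, mutant RFP and density less affected; inactive means any of these conditions unmet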; further: one replicate is shown; some compounds called inactive have numbers as strong as hits
ALR H2O2 inh = inhibitors of human sulfhydryl oxidase ALR; 290,000 tested, 3.8% active; purified ALR, DTT oxidation, H2O2 HRP-luminol luminescence; P55789; inhibition, % (no concentration beside the values);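 active means mean and each replicate at 75% or more; inconclusive means only one of the two met; inactive means neither met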;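 further: stock transfer was 7.5 nL into about 7.5 µL; 0% = neutral wells and 100% = wells with inactivated enzyme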
T cruzi repl = blocks replication of Trypanosoma cruzi | inhibition, % (test concentration not listed) | AID 1885 | T. cruzi beta-gal in NIH3T3, luminescence, 90 h | 300,000 tested, 1.4% active;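 active means mean inhibition across valid replicates above about 55%, limit read from the data; inconclusive means mean below that limit but half or more replicates reach it; inactive means mean below it, under half of replicates reach it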;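 further: signal also drops with host cell toxicity which is not excluded here; 0% = plate median of DMSO wells and 100% = zero luminescence signal; higher percent means less beta-gal luminescence so fewer parasites; stock transfer was 50 nL into about 50 µL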
Beta2AR agonist = activates human beta-2 adrenergic receptor causing internalization. P07550. Am2.2-beta2AR cells, FAP receptor internalization, flow cytometry; reference of the scale not given here. response, % (concentration not given with the values). 340,000 tested, 0.43% active;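 active means response above a set limit, near 3 SD of response in nonfluorescent compounds, cut at about 42% in these data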;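 further: stock transfer was 100 nL into about 11 µL; a reference agonist was the positive control; negative values mostly stem from fluorescent compounds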
LANA-H2B inh = blocks KSHV LANA binding to histone H2A/H2B | Q9QR71 | cell-free LANA-H2A/H2B peptide, fluorescence polarization | inhibition, % (no concentration beside the values) | 320,000 tested, 0.6% active | AID 2629; in the data active means inhibition mostly above about 10%, no sharp cut-off; inactive means mostly below about 6.7%;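 further: stock transfer was 7.5 nL into about 10 µL; 0% = median of vehicle wells and 100% = median of positive control wells; one replicate is shown; the record names a cut of 25% in any replicate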
Target sequence (Q9QR71 whole entry, looked up): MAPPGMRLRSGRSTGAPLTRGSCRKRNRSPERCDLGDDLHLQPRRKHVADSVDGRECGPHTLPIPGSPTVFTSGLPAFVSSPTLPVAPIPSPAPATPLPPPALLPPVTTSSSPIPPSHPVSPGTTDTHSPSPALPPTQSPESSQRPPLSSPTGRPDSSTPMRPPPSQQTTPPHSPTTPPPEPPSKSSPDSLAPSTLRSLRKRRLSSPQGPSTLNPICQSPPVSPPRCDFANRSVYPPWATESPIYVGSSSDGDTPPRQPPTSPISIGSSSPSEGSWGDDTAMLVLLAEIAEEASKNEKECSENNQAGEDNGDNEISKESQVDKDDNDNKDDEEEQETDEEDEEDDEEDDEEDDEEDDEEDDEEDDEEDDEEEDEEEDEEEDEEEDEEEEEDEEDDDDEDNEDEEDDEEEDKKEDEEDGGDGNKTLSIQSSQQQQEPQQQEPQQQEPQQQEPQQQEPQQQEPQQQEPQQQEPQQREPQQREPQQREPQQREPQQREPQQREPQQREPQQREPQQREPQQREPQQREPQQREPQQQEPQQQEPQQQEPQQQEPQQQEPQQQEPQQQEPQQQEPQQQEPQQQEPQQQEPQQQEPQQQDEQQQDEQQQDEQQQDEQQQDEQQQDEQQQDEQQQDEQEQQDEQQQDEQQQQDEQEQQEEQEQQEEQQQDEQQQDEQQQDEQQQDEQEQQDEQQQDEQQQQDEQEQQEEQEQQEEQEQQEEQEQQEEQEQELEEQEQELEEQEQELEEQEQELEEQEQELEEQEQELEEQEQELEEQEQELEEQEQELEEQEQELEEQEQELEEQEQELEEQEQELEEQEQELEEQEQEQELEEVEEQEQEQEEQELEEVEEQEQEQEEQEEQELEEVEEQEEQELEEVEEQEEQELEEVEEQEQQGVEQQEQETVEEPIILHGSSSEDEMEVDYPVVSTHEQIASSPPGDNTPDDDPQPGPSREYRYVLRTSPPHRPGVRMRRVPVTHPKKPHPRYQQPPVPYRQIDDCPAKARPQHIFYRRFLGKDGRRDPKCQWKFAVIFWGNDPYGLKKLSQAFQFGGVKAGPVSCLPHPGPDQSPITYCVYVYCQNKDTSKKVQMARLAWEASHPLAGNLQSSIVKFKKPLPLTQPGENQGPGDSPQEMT
Bfl-1 A1 inh = inhibitors of the anti-apoptotic protein A1, read as caspase activation. 330,000 tested, 0.066% active. caspase activation, % (no concentration beside the values). MEF A1-2A-BIM cells, Caspase-Glo 3/7 luminescence, 3 h; percent of clofoctol response, vehicle zero. AID 2462;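 active means over half of replicate activation scores above 10%, or exactly half above 10 with the replicate mean above 10; inconclusive means replicate mean below 10 yet half the replicates above 10; inactive means over half of replicates below 10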;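 further: wells of about 30 µL received 50 nL stock; many hits fall short of the cut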
Ecoli rRNA inh OD600 = further read-out of Ecoli rRNA inh, marked with its call; OD600 change, %; measured here: OD600 growth;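 optical density of the mix in the first replicate; 0 = DMSO median and -100 = no signal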
Ecoli rRNA inh RFP = recorded beside Ecoli rRNA inh, whose call it bears; RFP signal change, %; measured here: RFP humanized mutant strains;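 first replicate; 0 = DMSO median and -100 = no signal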
* marks the source's active call; other numbers are inactive results; ? = inconclusive; · = not tested or not shown.

SMILES	Calb FLC	Beta apoptosis	Ecoli rRNA inh	Ecoli rRNA inh OD600	Ecoli rRNA inh RFP	ALR H2O2 inh	T cruzi repl	Beta2AR agonist	LANA-H2B inh	Bfl-1 A1 inh
Cc1cccn2c(=O)nc(SCC(=O)Nc3ccc4c(c3)OCO4)nc12	0	-7	5	5	-3.3	-14	7	-1	-5.8	?
Cc1sc2nc(CSc3ccccc3)nc(N3CCN(C)CC3)c2c1C	34	-20	·	·	·	·	?	3	-1.8	-1.0
CCOC(=O)CSc1nc2ccccc2n1CC(=O)NC(C)(C)C	-21	-2	12	9	6.1	-3	-4	4	-2.3	-0.6
COc1ccc(/C=C/C(=O)C(C(N)=O)=C2SCCS2)cc1	2	-4	11	23	4.2	2	10	6	0.3	0.3
O=C(CSc1ccsc1[N+](=O)[O-])NC1CCCC1	-8	4	17	4	0.6	-3	7	12	-2.0	1.3
Cc1ccc(NC(=O)C(C)c2ccc([N+](=O)[O-])cc2)cc1Cl (stereo not drawn)	-58	5	·	·	·	-10	39	-1	0.3	0.7
COc1cnc(-c2ccccn2)nc1Oc1cccc(Cl)c1	-18	12	·	·	·	95*	-1	1	3.8	-0.4
O=C(Cc1ccccc1)Nc1ccccc1N1CCN(c2ccccc2)CC1	-5	-5	-23*	-14*	-2.5*	·	25	14	1.8	-1.1
Cn1cc(Br)c(C(=O)NC2C3CC4CC(C3)CC2C4)n1 (stereo not drawn)	-13	-1	·	·	·	10	15	-26	3.3	1.2
C/C(=C\c1ccco1)CN1CCC(N2CCC(C(=O)N3CCOCC3)CC2)CC1	2	-4	4	10	1.6	-8	-22	-1	-4.3	0.4
Cc1cc(=O)n2[nH]c(SCc3ccccc3)nc2n1	-5	-5	·	·	·	14	-24	1	3.7	-0.3
O=C(O)c1cc2c(s1)CCCC2	4	2	·	·	·	7	-2	0	4.6	-0.2
Cc1cccc(COc2ccc(/C=N/NC(=O)c3nnn(-c4nonc4N)c3COc3ccc(F)cc3)cc2)c1	5	8	16	11	1.1	-4	13	-14	3.4	-1.7
NNC(=O)c1ccc(O)cc1O	-11	-3	8	5	-3.7	99*	0	0	0.2	0.0
COc1ccccc1CNS(=O)(=O)c1cc(C(=O)NCC2CCCO2)c(Cl)cc1Cl (stereo not drawn)	·	-3	-7	-11	3.1	-3	·	8	1.3	1.0
Cc1ccc(Cl)cc1NC(=S)NCc1cccn1C	-8	8	·	·	·	-1	-11	13	-1.5	0.1
COCCOc1cnn(-c2cc(Oc3ccc(C)cc3)ncn2)c(=O)c1Cl	1	-4	·	·	·	-1	-15	-2	-2.2	2.2
CC(C)CCNC(=O)Cn1cc2c(n1)CCCCC2	5	1	-1	-2	0.8	-7	-4	-2	-1.4	0.7
Cc1nc2ccc([N+](=O)[O-])cc2c(=O)n1Cc1cccc(F)c1	·	-2	4	11	3.8	-18	3	-2	3.5	0.3
O=c1/c(=C\c2cccc(O)c2)sc2nc(-c3ccccc3)c(-c3ccccc3)n12	-3	10	15	7	5.3	·	-13	13	1.3	1.1
CCC(=O)Nc1nnc(S(=O)(=O)N(C)Cc2ccco2)s1	-1	-3	4	2	-3.2	1	9	10	1.6	0.2
COc1ccccc1/C=C/C(=O)OC(C)CN1CCOCC1 (stereo not drawn)	-4	-1	·	·	·	-3	1	2	-1.3	-0.3
COc1cc(/C=C(\C#N)C(=O)Nc2ccc(C(=O)O)cc2)ccc1OC(=O)c1cccc(F)c1	-5	0	21	15	6.6	4	-8	0	-4.5	-1.6
CNCCCOc1ccc(C)cc1OC	-1	-7	15	12	1.6	-7	4	4	0.0	-0.4
COCc1cc(=O)oc2cc(NC(=O)c3ccc(C(C)(C)C)cc3)ccc12	-2	24	·	·	·	5	-8	0	-2.1	-0.4
CSc1nsc(SC)c1NC(=O)Nc1ccccn1	11	-5	·	·	·	12	1	-7	2.8	-0.2
N#CCc1ccc(NS(=O)(=O)c2cccs2)cc1	-6	6	·	·	·	-7	-6	3	3.2	0.3
COc1ccccc1N1CCN(S(=O)(=O)c2c(C)[nH]c(C)c2C(=O)N2CCCC2)CC1	-4	-5	12	2	5.4	41	1	11	-5.8	0.0
Cc1ccc(C(=O)OCC(=O)NCCN2C(=O)CSC2=O)cc1	0	-2	11	8	1.2	0	-4	-1	-3.2	0.8
O=C(c1cc(S(=O)(=O)Nc2ccccc2F)c(Cl)cc1Cl)N1CCN(CCO)CC1	-1	0	12	3	-6.6	1	11	3	-2.9	0.4
CCn1c(CNC(=O)COc2ccc(C(C)C)cc2)nnc1SCC(=O)NC1CCCCC1C (stereo not drawn)	6	3	·	·	·	-7	-14	-3	3.2	-0.1
CC(C)N(CCNC(=O)c1oc(=O)c2ccccc2c1-c1ccccc1)Cc1ccco1	-7	-8	-7	-8	-0.1	-34	-7	-5	-7.4	0.1
Cc1cn(C2CC3OCC3O2)c(=O)[nH]c1=O (stereo not drawn)	11	-2	·	·	·	-3	1	4	-6.4	-1.4
CCc1nc2c(sc3nc4c(cc32)COC(C)(C)C4)c(=O)n1CCN(CC)CC	23	-3	8	8	-2.5	-3	-4	-11	-3.1	0.0
COC(=O)c1ccn(CC(=O)NC2CCCCC2)n1	10	-1	9	12	0.4	94*	-3	9	0.6	-0.9
O=C(O)c1cc(-c2ccc(/C=N/Nc3ccc(Cl)cc3)o2)ccc1Cl	15	-6	·	·	·	?	4	8	1.3	-0.7
CC(C)(Oc1ccc(Cl)cc1)C(=O)O	·	-1	·	·	·	·	-1	-1	1.8	0.7
O=C(CNC(=O)c1cccs1)c1ccc(Cl)cc1	3	0	-1	-11	-3.4	-5	-13	7	-1.0	-3.1
O=C(NC1CCCCC1)C(c1cccnc1)N(C(=O)c1csnn1)C1CCCC1 (stereo not drawn)	12	-1	·	·	·	·	-6	3	2.4	0.5
CN(C)C(=O)/C(=C\c1ccncc1)NC(=O)c1ccccc1	-14	-8	11	13	-2.5	4	-3	6	6.5	0.6
CCN(CC)S(=O)(=O)c1cccc(C(=O)Nc2cccnc2)c1	-6	2	0	-2	-2.4	-20	-2	-14	-1.4	0.3
O=C(c1ccccc1)N1N=C(c2ccccc2)CC1c1ccccc1[N+](=O)[O-] (stereo not drawn)	1	1	·	·	·	·	-8	-19	-7.3	0.2
Cc1ccc(S(=O)(=O)CC(C)N2CCOCC2)c(S(=O)(=O)CC(C)N2CCOCC2)c1 (stereo not drawn)	103*	·	·	·	·	-22	-1	-2	-3.3	0.8
O=C(CN(c1ccc(Cl)cc1)S(=O)(=O)c1ccc(Cl)c([N+](=O)[O-])c1)NCCc1ccccc1	-4	11	3	0	-5.5	2	74*	17	1.3	0.1
O=C(COc1ccccc1)N1CCN(c2nnc(-c3ccccc3)c3ccccc23)CC1	5	14	·	·	·	-61	55*	-11	4.3	0.2
N/C(=N\OC(=O)c1cc(-c2ccccc2)nc2ccccc12)c1cccnc1	-3	2	·	·	·	-12	-15	2	1.5	0.5
COc1cc2c(cc1OC)C(c1ccc(-c3cc(Cl)ccc3Cl)o1)=NCC2	-5	23	·	·	·	-2	47	15	4.3	1.1
COCc1cc(=O)[nH]c2c1c(-c1ccccc1)nn2C	-2	-5	-6	-23	-2.2	-12	-12	4	3.1	0.2
O=C1CCC(=O)N1CCSC(=S)N1CCOCC1	11	-3	6	4	2.0	-6	-3	-1	1.8	-1.2
COc1ccccc1C(=O)NCC(=O)N/N=C/c1cc(Br)ccc1OCc1ccccc1	14	8	-5	-2	-1.1	-32	2	5	-3.0	0.4
O=C(O)c1ccc(COc2ccccc2/C=C2/NC(=O)N(c3cccc(Cl)c3)C2=O)cc1	24	·	2	5	13	-2	-4	17	11	0.7
CCOCCCNC(=S)Nc1ccc(S(N)(=O)=O)cc1	-3	3	·	·	·	-15	-19	-1	2.0	0.1
COc1ccc(CNC(=O)CCn2c(=O)c3cccn3c3ccc(F)cc32)cc1	-9	-1	-3	-1	-1.8	-4	11	-17	0.5	1.0
Nc1nnc(SCC(=O)OCC(=O)NC2CCCCC2)s1	11	4	18	9	-3.5	-6	-3	4	-0.2	0.2
Cc1c(C(C)C)c(=O)n(-c2ccc(S(=O)(=O)N3CCOCC3)cc2)n1C	-15	2	8	10	-0.6	-3	-4	1	4.9	0.7
CCOc1ccccc1C(=O)NCCC(=O)O	51	·	·	·	·	-20	-2	1	-5.1	0.5
O=C(Nc1ccc(NC(=O)C2CC2)nc1)c1cccc(F)c1	-1	2	·	·	·	·	-3	-16	4.5	-3.1
COc1ccc(NC(=O)Nc2ccc(F)c(F)c2)c(OC)c1	-16	-4	8	-4	-0.3	-5	19	5	-5.1	0.4
CCCn1nc(C(=O)N2CCc3ccccc3C2)c2ccccc2c1=O	-19	-5	·	·	·	-10	19	3	-13	-0.2
c1cnc(N2CCN(Cc3c[nH]c4ccccc34)CC2)nc1	16	106*	·	·	·	19	50	3	-5.5	1.4
Next compounds follow:
SMILES	Calb FLC	Beta apoptosis	Ecoli rRNA inh	Ecoli rRNA inh OD600	Ecoli rRNA inh RFP	ALR H2O2 inh	T cruzi repl	Beta2AR agonist	LANA-H2B inh	Bfl-1 A1 inh
CSc1ccc(C(=O)C2CCCN(C(=O)c3nonc3C)C2)cc1 (stereo not drawn)	16	-7	-3	-15	1.6	-11	0	-5	-0.1	-0.6
COCC(C)NC(=O)c1ccc(N(C)C)cc1 (stereo not drawn)	-16	0	·	·	·	-2	-4	2	2.0	-0.3
CCN(CC)C(=O)c1sc(NC(=O)c2ccc(Br)o2)c(C(=O)OC)c1C	33	4	·	·	·	4	-7	-3	8.6	-0.4
COc1ccc(N2CC(C(=O)Nc3ccc(F)cc3F)CC2=O)cc1 (stereo not drawn)	-1	-14	·	·	·	-3	-12	-3	2.3	0.2
COc1ccc(/C=C2\SC(=S)N(CCCC(=O)Nc3cccc(C(=O)O)c3)C2=O)cc1OC	6	-9	0	1	-0.6	·	1	17	12	-1.3
COc1ccc(CCNC(=O)CSc2nc3[nH]ncc3c(=O)n2-c2ccc(C)c(Cl)c2)cc1OC	-4	·	4	-10	2.9	·	3	6	·	·
O=C(C1CC1)N1CCc2cc(S(=O)(=O)N(CCO)Cc3ccccc3)ccc21	-6	-1	·	·	·	0	-6	-12	2.6	0.0
Cc1cc(SCC(=O)c2ccc(Cl)cc2)nc(=O)[nH]1	-1	-7	12	13	11	·	5	-1	-2.8	-2.8
CCS(=O)(=O)N1N=C(c2cccc(NS(C)(=O)=O)c2)CC1c1cccs1 (stereo not drawn)	-2	·	-2	0	12	-4	0	7	0.9	-1.3
COC(=O)[C@H](C)NC(=O)Nc1cccc(C(F)(F)F)c1	-17	-3	·	·	·	-3	-2	2	1.1	0.1
Oc1ccccc1N1CCN(C(=S)NCCc2ccccc2)CC1	-19	-4	·	·	·	56	5	-2	14	-0.3

Compound activity from PubChem BioAssay.

Some of the compounds tested, so the mix of outcomes need not match the whole.
